# Bead autofluor – compound fluorescence in toxin protease inhibitor counterscreen. compound autofluorescence counterscreen, microsphere flow cytometry; stronger effect = higher value. fluorescence intensity (concentration not given with the values). 3.1% of 360,000 active;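 active means at least 3 SD above the mean of all compounds, about 16000 in these data; inconclusive means too few beads counted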;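 further: 100 nL of 1 mM stock went into each well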
# Mtb hypoxia inh – Mtb hypoxia fluorescent reporter inhibition; M. tuberculosis hypoxia-regulated fluorescent reporter, fluorescence; fluorescence inhibition, % (concentration not given with the values); 0.1% of 300,000 active; AID 1159583;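 active means 35 to 45% if threefold the growth effect, above 45% if 1.5-fold the growth effect; inactive means the rest, general growth blockers included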;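 further: wells of about 50 µL received 100 nL stock; 0% = vehicle wells and 100% = reference inhibitor wells; whole bacteria with a GFP reporter of the hypoxia response; strong numbers were not always called active; many hits fall short of the cut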
# BJeLR viability – kills HRASV12-expressing BJeLR cells; BJeLR (HRASV12) viability, CellTiter-Glo ATP luminescence, 48 h; reference of the scale not given here; inhibition, % (concentration not given with the values); 0.17% of 300,000 active;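 active means replicate mean above 50%; inconclusive means above 50% but judged a plate artefact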;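 further: 50 nL library stock added to about 25 µL; numbers are from one replicate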
# Sa RN4220 lethal – kills Staphylococcus aureus RN4220. S. aureus RN4220 growth, OD600, 16 h. inhibition, % (no concentration beside the values). 0.33% of 330,000 active. AID 1259311;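 active means z-score of -3 or lower and OD600 up to 0.18 on both plates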;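 further: plate controls were untreated cells for no effect and reference antibiotic for full effect; stock transfer was 100 nL into about 80 µL; one replicate is shown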
# Sa ugtP lethal – compounds lethal to S. aureus RN4220 ugtP deletion mutant; AID 1259309; 0.54% of 330,000 active; growth inhibition, % (test concentration not listed); OD600 growth, 16 h; some inactives read as strong as hits;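 active means z-score under -3 and OD600 up to 0.15 on both plates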;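 further: plate controls were untreated wells for no effect and antibiotic for full effect; wells of about 80 µL received 100 nL stock; the first replicate is given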
# PrP UTR inh – suppresses PrP 5' UTR mRNA reporter expression; cell-based PrP 5' UTR mRNA reporter, plate reader; 0.35% of 340,000 active; inhibition, % (concentration not given with the values);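 active means every replicate at 50% or more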;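 further: 0 = median of the neutral control wells; tested in H4 reporter cells; numbers are from one replicate; inactives centre near -14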
# Mtb hypoxia inh growth – recorded beside Mtb hypoxia inh, whose call it bears; growth inhibition, %; measured here: M. tuberculosis growth (absorbance);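 0% = vehicle and 100% = reference antibiotic; read after six days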
# Active calls of the source: *; ? = inconclusive; / = no result given. Random draw from the library. Share with any hit: about 4%.
canonical_smiles	Bead autofluor	Mtb hypoxia inh	Mtb hypoxia inh growth	BJeLR viability	Sa RN4220 lethal	Sa ugtP lethal	PrP UTR inh
COc1cccc(NC(=S)N(CCC(C)C)C(C)c2ccncc2)c1 (stereo not given)	3848	11	4	-5	4.0	3	1
Cc1sc2nc(CN3CCCC3)nc(N3CCN(S(=O)(=O)c4cccs4)CC3)c2c1C	24350*	-1	-1	5	0.0	-7	-32
COCCNC(=O)C1CCCN(S(=O)(=O)c2c(C)noc2/C=C/c2cccs2)C1 (stereo not given)	4647	10	-2	-8	3.1	6	-14
CCOP(=O)(OCC)C(Nc1ccccc1)c1ccccc1C(F)(F)F (stereo not given)	5938	8	4	-3	6.5	-3	-7
Cc1cc(C)cc(NC(=O)c2cccc(C(=O)Nc3cc(C)cc(C)c3)n2)c1	3778	2	-3	-2	7.3	9	-22
O=C(Cc1ccc(S(=O)(=O)N2CCCCC2)s1)Nc1ccc(F)c(F)c1	2661	2	-2	6	2.8	-21	-3
COc1ccc(C=N/N=C2/NC(=O)C(CC(=O)NC(N)=O)S2)cc1 (stereo not given)	/	14	6	/	2.6	6	/
O=C(N/N=C/c1ccc([N+](=O)[O-])cc1)c1ccc(COc2ccccc2-c2ccccc2)cc1	2038	/	/	-9	/	/	-8
O=C(CN1CCC(C(O)(c2ccccc2)c2ccccc2)CC1)Nc1cc(Cl)ccc1Cl	10275	-9	8	7	-8.4	-21	-4
N/C(=N\[N+](=O)[O-])N1CCN(C(=O)c2ccccn2)CC1	4090	/	/	-6	/	/	-15
CN(C)C(CNC(=O)c1c(F)cccc1Cl)c1ccco1 (stereo not given)	3468	4	9	-7	1.5	4	-13
O=C(NC1CCCC1)c1cc(-c2cccc(Cl)c2)on1	3682	10	7	-14	12	-2	-43
CN(CC(=O)NC1CC(C)(C)NC(C)(C)C1)S(=O)(=O)c1ccc(Br)cc1	4955	-1	5	9	-0.9	5	-27
CCOC(=O)C1=C(N)Oc2cc(C)n(C)c(=O)c2C1c1ccncc1 (stereo not given)	3485	1	0	-4	0.3	2	-12
CC(C)Oc1ccc(Br)cc1C(=O)NN=Cc1c[nH]c2ccccc12	/	-1	9	/	-4.0	17	/
O=C(/C=C/c1c(F)cccc1Cl)Nc1nc2ccccc2[nH]1	2364	-8	-5	-2	3.7	0	-131
Cc1c(C(=O)N2CCN(C3CCS(=O)(=O)C3)CC2)oc2ccc(Cl)cc12 (stereo not given)	?	6	1	/	2.9	8	-13
C=CCNC(=S)NNc1ncnc2sc3c(c12)CC(C)(C)OC3	?	7	4	-11	7.9	1	-4
COC(=O)C1=C(c2cccc(OCc3ccccc3)c2)CC2CCC1N2C(=O)NCCOc1ccccc1 (stereo not given)	/	4	0	/	-3.7	3	/
CCOc1cc(C=NNc2nnc(C)n2N)ccc1O	/	-8	1	/	4.1	1	/
Cc1cc(C)c(C)c(OCC(=O)N2CCCCCC2)c1	9065	12	16	2	6.3	3	-23
COc1ccc(O)c(/C=N/N2CCOCC2)c1	4574	/	/	-4	/	/	-14
CSc1ccccc1C(=O)Nc1cc([N+](=O)[O-])ccc1C	3907	2	-8	-1	8.8	3	-15
Cn1c(=O)oc2cc(S(=O)(=O)CCC(=O)N3CCN(c4ccccc4)CC3)ccc21	5286	18	14	-2	1.2	5	-2
COc1ccccc1C=NNC(=O)c1ccc(Cn2nc([N+](=O)[O-])cc2C)cc1	/	6	4	/	1.3	10	/
CCOC(=O)C(C)(C)Oc1ccc(Cl)cc1	4733	7	-2	/	6.2	-4	0
Cn1c(=O)cc(-c2ccccc2)c2ccccc21	15264	1	4	0	2.4	3	-5
COc1ccc(F)cc1-c1nc(N)nc(N)n1	3688	13	9	/	5.1	4	-7
C=CCn1c(=NC(=O)c2cc(-c3cccs3)nc3ccccc23)sc2cc(S(N)(=O)=O)ccc21	2634	4	12	2	-9.3	4	-27
CC(=O)Nc1c(I)c(C(=O)NC2C(O)OC(CO)C(O)C2O)c(I)c(N(C)C(C)=O)c1I (stereo not given)	/	11	2	/	9.0	5	/
CCCCNC(=O)COC(=O)c1ccc(NS(=O)(=O)c2ccc3c(c2)OCCO3)cc1	21536*	6	5	1	-1.5	2	-23
COCCNc1nc2nonc2nc1N(C)Cc1cccc2cnccc12	2892	-5	3	4	-1.6	0	-10
COc1ccc(OC)c(N(C(=O)c2snc(C(N)=O)c2N)C(C(=O)NCC2CCCO2)c2ccc3ncccc3c2)c1 (stereo not given)	4611	12	4	4	5.7	7	6
CCOc1ccccc1/C=C/c1onc(C)c1S(=O)(=O)N1CCC(C(=O)NC(C)C)CC1	3799	-4	4	-13	-1.0	-7	-3
CC(C)N1C(=O)CCN(C=O)c2ccccc21	4717	2	9	/	5.1	15	-1
CC(=O)CCS(=O)(=O)c1ccc(C)c(C)c1	2631	/	/	3	1.4	3	-23
O=C(NC(C(=O)NN=Cc1ccccn1)c1n[nH]c(=O)c2ccccc12)c1ccccc1 (stereo not given)	/	11	6	/	0.2	-1	/
COc1cc(/C=C(\C#N)c2nc3ccc(C)cc3[nH]2)c([N+](=O)[O-])cc1OC	3421	/	/	-9	11	4	-9
Cc1cc(=O)[nH]c2c1c(C)nn2-c1ccccc1	6333	6	6	2	3.4	11	-21
Cc1cc(C)nc(SCc2nc3ccccc3n2C)n1	4397	/	/	0	1.0	3	-24
COC(=O)c1ccc(-c2ccc(OC)c(C3C4C=CCC(C)C4C(=O)N3Cc3ccccc3)c2)cc1 (stereo not given)	/	6	11	/	-6.6	0	/
CC(=O)c1ccc(OCC(O)CNCc2ccc3c(c2)OCO3)cc1 (stereo not given)	6412	9	0	-6	2.7	9	1
Cc1ccc(S(=O)(=O)N2CCCCC2)cc1NC(=O)Cn1ccc(C(F)(F)F)n1	4335	-3	3	-1	3.9	2	-25
Cc1ncoc1C(=O)N1CCCC(C(=O)c2ccc(-c3ccccc3)cc2)C1 (stereo not given)	2500	11	5	2	2.6	9	-14
Fc1ccc(Nc2ncnc3sc4c(c23)CCC4)cc1	4718	4	4	8	17	-12	-7
CC(=O)Nc1ccc(NC(=O)C(C)OC(=O)c2ccc(-n3cnnn3)cc2)cc1 (stereo not given)	?	6	4	9	1.6	1	-2
Cc1ccc(CN2CCN(CCCc3ccccc3)CC2CCO)cc1 (stereo not given)	4855	-7	3	2	1.4	14	-26
CCC1CCc2sc(C(=O)N3CCCN(C)CC3)cc2C1 (stereo not given)	6006	-10	0	-2	0.2	3	-15
COc1ccc(Cc2noc(CN3CCN(C4CCc5ccccc5C4)CC3)n2)cc1OC (stereo not given)	4313	-16	-10	7	0.7	5	-21
CC(=O)c1c(OC(=O)c2ccc(C)cc2)c2ccccc2n1C	8248	9	8	0	-0.1	74	-1
COc1ccc(N=C2NC(=O)/C(=C\c3ccco3)S2)cc1	3337	0	-1	1	0.8	3	-26
CC(NC(=O)CCC(=O)c1ccccc1)c1ccc(F)cc1 (stereo not given)	6502	5	-8	-5	1.5	4	-23
CCOc1cc(C=NNc2ncnc(Cl)c2N)ccc1O	/	12	3	/	0.3	0	/
C/C(=N\NS(C)(=O)=O)c1ccc(C)cc1	7870	/	/	33	/	/	-24
CCN1CCN(CCNC(=O)c2cc(Cl)c(NC(=O)C3=C(C)OCCS3)cc2OC)CC1	4887	11	-2	8	1.5	0	-6
CSC1=C(C#N)C(c2ccc(Cl)cc2)C2=C(CC(C)(C)CC2=O)N1 (stereo not given)	23927*	3	1	-8	0.6	-8	-2
COc1ccc(NC(=O)CSc2nnnn2C)cc1S(=O)(=O)N1CCCCC1	3051	24	2	/	2.6	4	13
Cn1nccc1C(=O)Nc1nnc(C2CC2)s1	5409	2	3	8	-0.9	-6	-15
COc1ccc(S(=O)(=O)N(C)c2ccc(C(=O)N3CCN(c4ccccc4)CC3)cc2)cc1OC	6697	4	-4	-8	2.7	4	-7
Cc1ccc[n+](CC(=O)Nc2cc(C(F)(F)F)ccc2Cl)c1	8478	4	2	3	1.7	4	-17

# Of the compounds above, 4 have a nitro group on carbon.
canonical_smiles	Bead autofluor	Mtb hypoxia inh	Mtb hypoxia inh growth	BJeLR viability	Sa RN4220 lethal	Sa ugtP lethal	PrP UTR inh
O=C(N/N=C/c1ccc([N+](=O)[O-])cc1)c1ccc(COc2ccccc2-c2ccccc2)cc1	2038	/	/	-9	/	/	-8
CSc1ccccc1C(=O)Nc1cc([N+](=O)[O-])ccc1C	3907	2	-8	-1	8.8	3	-15
COc1ccccc1C=NNC(=O)c1ccc(Cn2nc([N+](=O)[O-])cc2C)cc1	/	6	4	/	1.3	10	/
COc1cc(/C=C(\C#N)c2nc3ccc(C)cc3[nH]2)c([N+](=O)[O-])cc1OC	3421	/	/	-9	11	4	-9

# (further entries)
canonical_smiles	Bead autofluor	Mtb hypoxia inh	Mtb hypoxia inh growth	BJeLR viability	Sa RN4220 lethal	Sa ugtP lethal	PrP UTR inh
Cc1ccc(SCc2c(C(=O)N/N=C/c3ccccc3)nnn2-c2nonc2N)cc1	5796	/	/	-15	/	/	-57
CC(Oc1ccccc1)c1nnn(Cc2ccccc2)c1-c1c(C(C)Oc2ccccc2)nnn1Cc1ccccc1 (stereo not given)	/	2	-2	/	1.9	5	/
NS(=O)(=O)c1ccc(O)c(NC(=O)c2ccc([N+](=O)[O-])cc2)c1	5710	7	5	-13	3.2	1	-23
CC1CCN(CC(O)COc2ccc(F)cc2)CC1 (stereo not given)	5945	/	/	4	0.8	2	-5
Cc1ccc2cc(CN(CC3CCCO3)S(=O)(=O)c3ccccc3)c3nnnn3c2c1 (stereo not given)	17821*	4	-1	-3	-0.2	2	-18
Cc1cc(C)nc(NS(=O)(=O)c2ccc(N3Cc4ccccc4C3=O)cc2)n1	2525	7	2	-4	1.2	5	-14
CS(=O)(=O)N1CCC(C(=O)N2CCN(c3ccccc3)CC2)CC1	4212	2	2	6	6.9	14	-18
COCCCNC(=O)c1cc(S(=O)(=O)NCCCN2CCCC2=O)ccc1Cl	?	-3	-5	/	2.8	8	-8
O=S(=O)(Nc1ccc(F)cc1)c1ccc(S(=O)(=O)N2CCOCC2)cc1	7433	7	7	/	11	-6	-16
CCC1CCCCN1C(=O)CSc1nnc(-c2ccc(Cl)s2)o1 (stereo not given)	2386	/	/	-8	4.6	-8	-22
Cc1cc(C)nc(N2CCC(C(=O)NCCc3ccc(F)cc3)CC2)n1	26052*	9	6	-7	4.0	8	-13
COc1ccc(CNC(=O)COC(=O)c2c[nH]c(=O)[nH]c2=O)cc1OC	2405	4	5	4	3.0	-1	-22
O=C(CC1SC(=Nc2ccc(OC(F)F)cc2)N(CCN2CCOCC2)C1=O)Nc1ccc(F)cc1F (stereo not given)	4090	12	5	4	3.6	1	2

# Nothing new here: entries from further up.
canonical_smiles	Bead autofluor	Mtb hypoxia inh	Mtb hypoxia inh growth	BJeLR viability	Sa RN4220 lethal	Sa ugtP lethal	PrP UTR inh
Cc1ccc(SCc2c(C(=O)N/N=C/c3ccccc3)nnn2-c2nonc2N)cc1	5796	/	/	-15	/	/	-57
CC(Oc1ccccc1)c1nnn(Cc2ccccc2)c1-c1c(C(C)Oc2ccccc2)nnn1Cc1ccccc1 (stereo not given)	/	2	-2	/	1.9	5	/
NS(=O)(=O)c1ccc(O)c(NC(=O)c2ccc([N+](=O)[O-])cc2)c1	5710	7	5	-13	3.2	1	-23
CC1CCN(CC(O)COc2ccc(F)cc2)CC1 (stereo not given)	5945	/	/	4	0.8	2	-5
Cc1ccc2cc(CN(CC3CCCO3)S(=O)(=O)c3ccccc3)c3nnnn3c2c1 (stereo not given)	17821*	4	-1	-3	-0.2	2	-18
Cc1cc(C)nc(NS(=O)(=O)c2ccc(N3Cc4ccccc4C3=O)cc2)n1	2525	7	2	-4	1.2	5	-14
CS(=O)(=O)N1CCC(C(=O)N2CCN(c3ccccc3)CC2)CC1	4212	2	2	6	6.9	14	-18

# Rewritten with each value named: part of the list above
Cc1ccc(SCc2c(C(=O)N/N=C/c3ccccc3)nnn2-c2nonc2N)cc1
  Bead autofluor: 5796	Mtb hypoxia inh: /	Mtb hypoxia inh growth: /	BJeLR viability: -15	Sa RN4220 lethal: /	Sa ugtP lethal: /	PrP UTR inh: -57

CC(Oc1ccccc1)c1nnn(Cc2ccccc2)c1-c1c(C(C)Oc2ccccc2)nnn1Cc1ccccc1 (stereo not given)
  Bead autofluor: /	Mtb hypoxia inh: 2	Mtb hypoxia inh growth: -2	BJeLR viability: /	Sa RN4220 lethal: 1.9	Sa ugtP lethal: 5	PrP UTR inh: /

# Screens from PubChem.
